A488 fluor = qHTS Assay for Spectroscopic Profiling in A488 Spectral Region. max dye equivalency, M. compound autofluorescence, A488 spectral region, dye equivalency; hits give high values. 59,000 tested, 0.1% active. AID 591, 2007; active = above 10 nM dye equivalent; inconclusive = 1 to 10 nM; inactive = 1 nM or less; about half of its hits are not listed in these tables;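 note: highest value over a series up to 38 µM; compound alone in buffer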
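Readout is A488 dye-equivalent concentration, calibrated by a per-plate six-point Alexa 488 series. Compounds in 100 mM Tris buffer pH 8.0 were incubated 15 min at room temperature. Plates were imaged using 480 nm excitation/540 nm emission filters.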
A647 fluor = qHTS Assay for Spectroscopic Profiling in A647 Spectral Region; Compound fluorescence, A647 channel (570/671 nm), Tris buffer; max dye-equivalent concentration, M; 59,000 tested, under 10 active; active means above 1 µM dye equivalent; inconclusive means 0.1 to 1 µM; inactive means 0.1 µM or less;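 note: values scaled relative to a standard on each plate; highest value over a series up to 38 µM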
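Tris 100 mM pH 8.0; cpd + A647 stds pin-transferred; 15 min RT; CCD imager, ex 570/em 671. Output = A647-equivalent conc. per cpd conc.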
Resorufin autofl = qHTS Assay for Spectroscopic Profiling in Resorufin Spectral Region | Compound fluorescence, resorufin region 547/598 nm, buffer; hits give high values | max dye-equivalent concentration, M | 59,000 tested, 0.04% active; active = above 10 nM dye equivalent; inconclusive = 1 to 10 nM; inactive = 1 nM or less; a few of its hits are not listed in these tables; note: highest value over a series up to 38 µM
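Dye-equivalent concentration values derive from comparing each well's 547/598 nm fluorescence against resorufin standards included on every plate. Incubation was 15 min at room temperature in 100 mM Tris, pH 8.0.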
TSHR ag = qHTS Assay for Agonists of the Thyroid Stimulating Hormone Receptor; HEK293-CNG-TSHR cells (CNG channel as cAMP sensor), membrane potential dye, cAMP; Thyrotropin receptor (Homo sapiens), P16473; Potency, µM (series often up to 57.1 µM), for inactives: at the top dose activation, usual class: activators; 73,000 tested, 0.48% active; active = well fitted activation curve of enough size with the parental cells flat; inconclusive = any curve in the parental cells; inactive = parental cells flat and receptor cells flat or falling; note: potency is the fitted concentration of half-maximal effect; % of control where 0% means no effect; weak receptor curves with flat parental cells got no call and are not listed
Target sequence (P16473 whole entry, looked up): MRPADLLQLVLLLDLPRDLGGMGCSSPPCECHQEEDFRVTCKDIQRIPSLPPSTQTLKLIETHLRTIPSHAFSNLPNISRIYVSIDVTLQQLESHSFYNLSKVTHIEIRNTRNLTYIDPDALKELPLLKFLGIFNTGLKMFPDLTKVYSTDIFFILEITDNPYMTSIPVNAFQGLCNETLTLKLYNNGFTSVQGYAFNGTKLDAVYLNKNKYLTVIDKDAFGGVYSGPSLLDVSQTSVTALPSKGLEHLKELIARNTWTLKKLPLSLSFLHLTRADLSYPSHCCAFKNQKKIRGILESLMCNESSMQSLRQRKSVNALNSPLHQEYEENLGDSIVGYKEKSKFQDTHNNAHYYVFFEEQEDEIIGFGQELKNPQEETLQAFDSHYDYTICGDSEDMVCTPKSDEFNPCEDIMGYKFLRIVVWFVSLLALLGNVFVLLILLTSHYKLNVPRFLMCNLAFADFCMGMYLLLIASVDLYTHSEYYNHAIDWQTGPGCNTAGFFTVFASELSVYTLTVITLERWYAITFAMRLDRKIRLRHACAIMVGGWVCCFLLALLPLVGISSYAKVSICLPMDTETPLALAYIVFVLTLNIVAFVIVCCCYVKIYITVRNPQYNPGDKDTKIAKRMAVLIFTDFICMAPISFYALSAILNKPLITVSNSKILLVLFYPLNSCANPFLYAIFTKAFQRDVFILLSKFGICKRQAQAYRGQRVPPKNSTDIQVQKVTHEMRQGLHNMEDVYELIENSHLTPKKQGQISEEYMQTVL
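HEK 293 cells stably expressing TSHR and a cAMP-gated CNG channel; parental CNG-only cells as counterscreen. Cells preloaded 60 min with membrane potential dye plus 100 uM RO 20-1724, then compound 30 min; fluorescence read at 590 nm.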
AID923 = qHTS Assay for Allosteric/Competitive Inhibitors of Caspase-1: Spectroscopic Profiling in AFC Spectral Region | Potency, µM (highest dose often 57.5 µM), for inactives: top-dose fluorescence increase, actives largely listed as activators | AID 923, 2007 | compound fluorescence, AFC spectral region (405/520 nm); almost no hit is shown here | 75,000 tested, 1.1% active; active = well fitted activation curve with a large enough effect; inconclusive = small, poorly fitted or top-dose-only effect;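 note: potency is the fitted concentration of half-maximal effect; 0% is about no effect; scaled to a free AFC standard on each plate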
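Compound autofluorescence profiled at 405 nm ex/520 nm em during kinetic caspase 1 run (50 nM enzyme, 5 uM Ac-WEHD-AFC, HEPES pH 7.5, 10 mM DTT). Titration up to 57 uM; baseline from regression intercept, normalized to AFC standard curve.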
An asterisk follows results filed as active; i = inactive; ? = inconclusive; / = not tested or not shown; [ ] = dose if it differs, or a comment. These rows are one share of the data (hit frequency here may not be typical).

SMILES | A488 fluor | A647 fluor | Resorufin autofl | TSHR ag | AID923
O=C(CSC1=NCCS1)Nc1ccccc1F | i | 1.6e-08 | i | -2% | 0.2%
CCOC(=O)N1CCN(C/C(C)=C/c2ccccc2)CC1 | / | / | / | 9% | 3.1%
CCOCCCNC(=O)c1ccc(OC)cc1 | i | 6.6e-09 | i | 3% | 3.1%
O=C(O)c1ccc(CSc2nnc(-c3ccncc3)n2CC2CCCO2)cc1 (stereo not drawn) | i | 5e-09 | i | 3% | 0.5%
COc1cc(C(=O)NCc2nnc(SCC(=O)N3CCC(C)CC3)o2)cc(OC)c1OC | i | 1e-09 | i | -3%[11.4 µM] | -0.2%
Cc1ccc(Oc2nc3ccccc3n3c(C)nnc23)cc1 | i | 4.1e-08 | i | -7% | -0.2%
Nc1ccccc1N=Nc1c(S(=O)(=O)O)cc2cc(S(=O)(=O)O)cc(O)c2c1O | i | 1e-09 | i | 10%[11.4 µM] | -1.0%[11.5 µM]
COC(=O)[C@@]1(Cc2ccc(F)cc2)[C@H]2c3cc(C(=O)N(C)C)n(Cc4nc5ccccc5[nH]4)c3C[C@H]2CN1C(=O)c1ccccc1 | / | / | / | 5% | 4.0%
CCOC(=O)N1CCN(C(=O)c2cc3c(ccc4ccccc43)oc2=O)CC1 | i | 6.5e-09 | i | 5% | 11%
CCSc1nnc(-c2ccc(Cl)cc2Cl)o1 | / | / | / | 28%[11.4 µM] | -3.8%
CCOc1ccc(-c2nnc3ccc(SCC(=O)NCc4ccco4)nn23)cc1 | i | 1e-09 | i | 0%[11.4 µM] | 7.2%
Fc1ccc(C(c2nnnn2C2CCCC2)N2CCN(Cc3ccncc3)CC2)cc1 (stereo not drawn) | i | 1e-09 | i | -51%[inhibitor] | 0.3%
COC(=O)C1=C(C)N(CCc2ccccc2)C(=O)C1 | i | 1.7e-09 | i | 3% | -1.2%
Cc1cccc(-n2c(=O)[nH]c3c(C(N)=O)nc(C(C)C)nc32)c1 | i | 1e-09 | i | 4%[11.4 µM] | 5.5%
Clc1nc2sccn2c1/C=N/n1cnc2ccccc21 | i | 1.8e-08 | i | 7% | -0.9%
O=C1CN(CC(=O)N2CCCCC2)c2ccccc2O1 | i | 2e-08 | i | -1% | 2.7%
COc1ccc(CCNC(=O)CCn2c(=O)oc3ccccc32)cc1 | / | / | / | 10% | 1.6%
CC(=O)Nn1c(C)nnc1-n1nc(C)cc1C | / | / | / | 3% | 2.0%
CC1CCC(NC(=O)CN2CCCN(Cc3ccc(F)cc3Cl)C2=O)CC1 (stereo not drawn) | i | 2.8e-09 | i | 7% | -0.9%
COC(=O)CSc1nnc(-c2ccncc2)o1 | / | / | / | -3% | 1.4%

Of the compounds above, these contain sulfur:
SMILES | A488 fluor | A647 fluor | Resorufin autofl | TSHR ag | AID923
O=C(CSC1=NCCS1)Nc1ccccc1F | i | 1.6e-08 | i | -2% | 0.2%
O=C(O)c1ccc(CSc2nnc(-c3ccncc3)n2CC2CCCO2)cc1 (stereo not drawn) | i | 5e-09 | i | 3% | 0.5%
COc1cc(C(=O)NCc2nnc(SCC(=O)N3CCC(C)CC3)o2)cc(OC)c1OC | i | 1e-09 | i | -3%[11.4 µM] | -0.2%
Nc1ccccc1N=Nc1c(S(=O)(=O)O)cc2cc(S(=O)(=O)O)cc(O)c2c1O | i | 1e-09 | i | 10%[11.4 µM] | -1.0%[11.5 µM]
CCSc1nnc(-c2ccc(Cl)cc2Cl)o1 | / | / | / | 28%[11.4 µM] | -3.8%
CCOc1ccc(-c2nnc3ccc(SCC(=O)NCc4ccco4)nn23)cc1 | i | 1e-09 | i | 0%[11.4 µM] | 7.2%
Clc1nc2sccn2c1/C=N/n1cnc2ccccc21 | i | 1.8e-08 | i | 7% | -0.9%
COC(=O)CSc1nnc(-c2ccncc2)o1 | / | / | / | -3% | 1.4%

Additional entries follow.
SMILES | A488 fluor | A647 fluor | Resorufin autofl | TSHR ag | AID923
CCOC(=O)C1CCN(C(C(=O)NC2CCCCC2)c2ccc(OC)cc2)CC1 (stereo not drawn) | i | 1.1e-09 | i | 13% | -0.7%
CCc1c(C)[nH]n(CCC#N)c1=O | / | / | / | -1% | 0.7%
CCCCN(CCCNC(=O)CN1C(=O)COc2ccccc21)c1ccccc1 | i | 2.2e-08 | i | ? | -2.2%
Cc1ccc(N2CC(C(=O)NC3=NCCS3)CC2=O)cc1C (stereo not drawn) | i | 1.9e-08 | i | 4% | -0.9%
Cc1ccc(NC(=O)CSc2nnc(CCCCCNC(=O)OC(C)(C)C)o2)c(C)c1 | i | 3.5e-08 | i | ? | 0.1%
Nc1nnnn1/N=C/c1ccco1 | i | 5e-08 | i | / | /
O=C(O)CCC(=O)N1CCc2cc(S(=O)(=O)N3CCC(Cc4ccccc4)CC3)ccc21 | / | / | / | ? | -2.6%
O=C(NC1CC1)c1ccc(S(=O)(=O)NCC2CCCCC2)cc1 | i | 2.8e-09 | i | 0% | 1.8%
O=C1CSC(c2ccco2)N1 (stereo not drawn) | / | / | / | 8% | 3.6%
O=C(c1ccc(CN2CCOCC2)cc1)N1CCN(Cc2ccccc2)CC1 | / | / | / | -8% | 9.4%
COc1ccc2c(c1OC)C(=O)N1c3ccccc3SC21 (stereo not drawn) | i | 6.5e-08 | i | / | /
O=C(CSc1n[nH]c(-c2ccc(S(=O)(=O)NC3CCCCC3)cc2)n1)N1CCCC1 | i | 3.5e-09 | i | 17% | 0.4%
Nc1nc(N)nc(-c2ccccn2)n1 | i | 2.9e-08 | i | -1% | -2.4%
Cc1ccc2cc(CN(Cc3cccs3)Cc3nnnn3CC3CCCO3)c(=O)[nH]c2c1 (stereo not drawn) | i | 4.2e-08 | i | / | -0.2%
O=C1NC(=O)C2(CCC(C(=O)O)C2)N1 (stereo not drawn) | i | 2.1e-08 | i | 15% | -0.4%
COC(=O)CCN1CCC(C(N)=O)CC1 | i | 5.1e-09 | i | 5% | 0.0%
COc1ccccc1CNC(=O)c1c(O)c2cc(OC)c(OC)cc2[nH]c1=O | i | 5.3e-09 | i | -1% | -2.3%
Cc1ccc(C(=O)Nc2ccc3c(c2)ncn3C)cc1 | i | 7.6e-09 | i | 0% | -1.7%
CC(=O)c1cccc(NC(=O)NCCS(C)=O)c1 (stereo not drawn) | i | 2.2e-08 | i | -4% | -0.1%
O=C(NC1(C(F)(F)F)NC(=O)N(Cc2cccnc2)C1=O)c1cccs1 (stereo not drawn) | i | 7.1e-09 | i | -19% | -0.6%
CC(=O)Nc1ccc(OCC(O)CN2CCN(Cc3ccccc3)CC2)cc1 (stereo not drawn) | i | 7.7e-08 | i | / | -0.8%
COc1ccc(-c2nnc(-c3ccc(N(C)C)cc3)o2)cc1 | i | 9.2e-09 | i | 6% | -0.7%
COC(=O)c1sccc1NC(=O)c1ccncc1 | i | 3.8e-09 | i | 5% | -1.6%
Cc1ccc(-c2cc(C(=O)N3CCCC3)no2)cc1 | i | 1e-09 | i | ? | -1.9%
COc1ccc2nc(SCC(=O)Nc3ccc4c(c3)OCCO4)[nH]c2c1 | i | 2.1e-08 | i | -4% | 3.0%
C=C(C)C(=O)OC | / | / | / | 1% | 1.0%
COc1ccc(OC)c(CNC(=O)C2CCN(S(=O)(=O)N3CCCC3)CC2)c1 | i | 2.8e-08 | i | 1%[11.4 µM] | -0.2%
CSc1nc(C)cc(SCCO)n1 | / | / | / | -8% | -0.3%
COc1ccc(C(=O)Nc2ccc(S(=O)(=O)NCc3ccco3)cc2)cc1OC | i | 1e-09 | i | -4% | 1.1%
COc1cccc(-c2cc(NCCc3c[nH]c4ccc(OC)cc34)ncn2)c1 | i | 1.7e-08 | i | -2% | 1.8%
CCC(Sc1nc(C)cc(=O)[nH]1)C(=O)Nc1sc2c(c1C#N)CCCC2 (stereo not drawn) | / | / | / | ? | -0.2%
O=C(CSc1nnc(Cc2ccccc2)n1-c1ccc(Cl)cc1)N1CCOCC1 | i | 1e-09 | i | ? | -1.9%
CN(C)S(=O)(=O)c1ccc(C(=O)Oc2cc(=O)[nH]c3ccccc23)cc1 | i | 5.2e-09 | i | -13% | -0.1%
CCN(CC)C(NC(=O)c1ccccc1)C(=O)c1ccccc1 (stereo not drawn) | i | 1e-09 | i | 4% | -0.2%
COC(=O)c1ccc(C(NC(=O)c2ccccc2)[C@]2(C)C[C@H]2C2CCCCC2)cc1 (stereo partly drawn) | / | / | / | 10% | -1.3%
CCc1c(O)nc(SCc2ccccc2)n(C(C)CC)c1=O (stereo not drawn) | / | / | / | ? | 2.5%
COc1ccc(-c2cc(C(=O)Nc3c(C)nn(Cc4ccccc4Cl)c3C)no2)cc1 | i | 1.6e-08 | i | 1% | -0.6%
CCC(C(=O)NCCN1CCN(C)CC1)n1c(C)c2cnn(-c3ccccc3)c(=O)c2c1C (stereo not drawn) | / | / | / | -1% | -1.5%
Nc1nnc(CCC2CCCCC2)s1 | i | 2.4e-08 | i | 1% | -1.6%
COc1cccc(N(CC(=O)NC2CCCC2)C(=O)Cn2nnc(-c3ccc(C)cc3)n2)c1 | i | 3.9e-08 | i | 13% | -1.1%
CC1CCN(S(=O)(=O)c2ccc(S(=O)(=O)NCC3COCCO3)cc2)CC1 (stereo not drawn) | i | 5.3e-08 | i | -9% | -0.6%
CCOC(=O)c1[nH]c(CSc2nnc(-c3ccc(OC)cc3)o2)c(C(=O)OCC)c1C | i | 3.7e-08 | i | 10% | 2.8%
COc1ccc(-n2c(Cc3cccn3C)nnc2SCC(=O)Nc2cccc(C)c2C)cc1 | / | / | / | 15% | -2.3%
CCOc1ccc(NC(=O)C2CC=CCC2C(=O)O)cc1 (stereo not drawn) | i | 1.1e-08 | i | / | 5.3%
CCOC(=O)N1CCN(C(=O)COc2ccccc2OC)CC1 | / | / | / | -15% | 2.2%
COC(=O)CSc1nc2c(c(=O)[nH]c(=O)n2C)n1CCC(C)C | i | 5.1e-09 | i | 0% | -0.7%
Cc1cc(C(C)(C)C)cc(S(=O)(=O)NCC(=O)O)c1C | i | 1.2e-08 | i | 0% | 0.1%
N#Cc1cn(CC(=O)NCCc2c[nH]c3ccccc23)c2ccccc12 | i | 2.2e-08 | i | -13% | 0.1%
CCN1CCN(C(=O)c2cc3c(=O)n(C)c4ccccc4c3n2C)CC1 | / | / | / | 15% | -0.1%
CCOc1ccc(-c2nnc(N)o2)cc1 | i | 6.4e-09 | i | -1% | -2.1%

Remaining list, next part
SMILES | A488 fluor | A647 fluor | Resorufin autofl | TSHR ag | AID923
CCCCc1c(C)nn(-c2nnc3c4ccccc4n(C)c3n2)c1C | i | 9e-08 | i | / | /
Cc1cc(C)n(-c2ccc(C(=O)OCC(=O)c3c(N)n(C)c(=O)n(C)c3=O)cc2)n1 | i | 5.4e-09 | i | 9% | 0.6%
COc1ccc2nc(SCC(=O)O)nc(C)c2c1 | i | 5.4e-08 | i | / | /
COc1cccc(CNC(=O)C2CCN(S(=O)(=O)c3ccccc3)CC2)c1 | i | 1e-09 | i | -3% | 1.0%
CCc1ccccc1NC(=O)c1cccs1 | / | / | / | 8% | 0.4%
COC(=O)Cc1c(C)c2ccc(OCC(=O)NCc3ccc4c(c3)OCO4)cc2oc1=O | i | 1e-09 | i | -2% | -0.2%
O=S(=O)(NCC1CCCO1)c1cccc(S(=O)(=O)N2CCCC2)c1 (stereo not drawn) | i | 1e-09 | i | -2% | -0.7%
COCCNC(=O)C(c1ccc(C)o1)N(C(=O)c1snc(C(N)=O)c1N)c1cc(C)cc(C)c1 (stereo not drawn) | i | 1e-09 | i | 22% | 5.9%
CCOC(=O)CC(=O)CSc1nc2ccccc2c(=O)n1-c1ccc(C(=O)N2CCOCC2)cc1 | i | 1e-08 | i | 8% | -1.2%
